# SARS PLP yeast: inhibitors of SARS-CoV papain-like protease in yeast; S. cerevisiae expressing SARS-CoV PLpro, growth rescue; control for the full effect not named in the record; Potency, µM (doses to about 32.9 µM), for inactives: at the top dose activity, positive = growth rescue; hit rate 0.19% among 330,000; AID 485353; note: 0% is about no effect; nearly all actives have a fitted effect of over 55% in size; growth read by luminescence after 48 h
# Cruzain noTriton: inhibitors of Trypanosoma cruzi cruzain without detergent; purified cruzain, Z-FR-AMC fluorescence, no detergent; Potency, µM, for inactives: max response, negative = inhibition, usual class: inhibitors; hit rate 2.3% among 200,000; AID 1476; active = well fitted curve in the direction sought with a large enough effect; inconclusive = small, poorly fitted or top-dose-only effect, or another doubt; inactive = no such curve, though single readings can be large; an effect the other way counts as inactive or inconclusive;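 note: plate controls were enzyme without inhibitor for no effect and buffer without enzyme for full effect; nearly all actives have a fitted effect of over 40% in size; top concentration of the series not given in the record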
# Target sequence (P25779 123-467 limits assumed): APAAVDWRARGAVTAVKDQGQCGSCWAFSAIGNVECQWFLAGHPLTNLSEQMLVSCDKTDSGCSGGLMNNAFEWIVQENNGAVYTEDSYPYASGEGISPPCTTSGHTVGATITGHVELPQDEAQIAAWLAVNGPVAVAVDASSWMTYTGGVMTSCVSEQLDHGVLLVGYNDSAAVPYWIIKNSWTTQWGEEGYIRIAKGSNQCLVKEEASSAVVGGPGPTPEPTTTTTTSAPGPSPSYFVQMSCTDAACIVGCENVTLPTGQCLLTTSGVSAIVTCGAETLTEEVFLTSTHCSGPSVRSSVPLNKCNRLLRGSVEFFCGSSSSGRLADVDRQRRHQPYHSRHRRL
#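 Purified cruzain at 1.5 nM, pre-incubated 15 min with compound at room temperature in 100 mM sodium acetate pH 5.5, 5 mM DTT, 0.00005% Triton X-100. Reaction started with 2 uM Z-FR-AMC; AMC fluorescence increase over 60 s gives rate.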
# RE007 growth inh: less growth of the S. pombe RE007 Vpr strain; S. pombe RE007 Vpr strain, BacTiter-Glo ATP luminescence, 24 h; control for the full effect not named in the record; Potency, µM (series often up to 92.2 µM), for inactives: top-dose activity change, negative = less growth; hit rate 0.21% among 360,000; AID 651644; active = well fitted falling curve with a large enough effect; inconclusive = small, poorly fitted or top-dose-only effect; inactive = no such curve, though single readings can be large or run the other way;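 note: % is set by controls: 0 for no effect and ±100 for the full control effect; nearly all actives have a fitted effect of over 50% in size; the assay follows cell death caused by Vpr and the record does not say whether a fall means rescue or toxicity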
#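 Fission yeast RE007 carrying one integrated HIV-1 vpr copy, seeded at OD 0.01 in PMG+AL medium with 23 nL pinned compound. Grown 24 h at 30 degrees; viability read by BacTiter-Glo luminescence after 5 min.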
# LASV entry inh: Lassa virus entry inhibition. Potency, µM (highest dose often 37.9 µM), for inactives: at the highest dose activity change, negative = inhibition, most hits filed as inhibitors. hit rate 1.2% among 300,000. AID 540256. Lassa virus pseudotype entry inhibition, cell reporter; control for the full effect not named in the record; active means well fitted inhibition curve with a large enough effect; inconclusive means small, poorly fitted or top-dose-only effect, or effect the other way; inactive means flat fitted curve, though single readings scatter; tested in HEK293 cells; note: % is set by controls: 0 for no effect and ±100 for the full control effect; nearly all actives have a fitted effect of over 50% in size; luciferase read-out
# Cruzain Triton: inhibitors of Trypanosoma cruzi cruzain with detergent. P25779. purified cruzain, Z-FR-AMC fluorescence, 0.01% Triton. Potency, µM, without a hit: max response, negative = inhibition, hits mostly inhibitors. hit rate 0.43% among 200,000. AID 1478; active = well fitted curve in the direction sought with a large enough effect; inconclusive = small, poorly fitted or top-dose-only effect, or another doubt; inactive = no such curve, though single readings can be large; an effect the other way counts as inactive or inconclusive;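 note: plate controls were neutral wells for no effect and buffer without enzyme for full effect; nearly all actives have a fitted effect of over 40% in size; top concentration of the series not given in the record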
#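 Z-FR-AMC hydrolysis (2 uM substrate) by cruzain (1.5 nM) monitored kinetically at ex 360/em 450 nm after 15 min room-temperature compound exposure; 0.01% Triton X-100, pH 5.5, 5 mM DTT.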
# NS1 inh: inhibitors of influenza NS1 protein function | hit rate 0.4% among 270,000 | Potency, µM (highest dose often 46.1 µM), for inactives: top-dose activity, positive = more growth | S. cerevisiae slowed by influenza A NS1, growth recovery by OD600; note: actives are rising curves; nearly all actives have a fitted effect of over 50% in size
#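 OD600 was taken as the measure of yeast growth restored by compound in an NS1-expressing S. cerevisiae strain. Cells had been washed out of glucose medium and diluted 1:100 into galactose -URA medium, pH 6.0.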
# StopGo reporter: lowers the luciferase signal of an FMDV 2A StopGo reporter. human cells with a luciferase reporter of 2A StopGo recoding; control for the full effect not named in the record. Potency, µM (series often up to 57.9 µM), for the others: top-dose signal change, negative = less light. hit rate 1.2% among 410,000; active = well fitted falling curve with a large enough effect; inconclusive = small, poorly fitted or top-dose-only effect; inactive = no such curve, though single readings can be large or run the other way; tested in HEK293T cells; note: % is set by controls: 0 for no effect and ±100 for the full control effect; nearly all actives have a fitted effect of over 45% in size; luciferase light after 4 h
# MARV entry inh: inhibitors of Marburg virus binding or cell entry; hit rate 1.8% among 300,000; Potency, µM (highest dose often 37.8 µM), without a hit: at the highest dose activity change, negative = inhibition, usual class: inhibitors; Marburg virus pseudotyped entry inhibition, cell reporter; control for the full effect not named in the record; about a third of the inactives were read at about 46 µM; active = well fitted inhibition curve with a large enough effect; inconclusive = small, poorly fitted or top-dose-only effect, or effect the other way; inactive = flat fitted curve, though single readings scatter; tested in HEK293 cells; about a fifth of its hits are not listed in these tables; note: % is set by controls: 0 for no effect and ±100 for the full control effect; luciferase read-out
# * = called active by the depositor; ? = inconclusive; nt = not tested or not shown; [ ] = another dose, or the depositor's remark. Unless noted, calls come from the whole dose curve; as a rule, active means well fitted rising curve with a large enough effect; inconclusive means small, poorly fitted or top-dose-only effect; inactive means no such curve, though single readings can be large or run the other way. Potency is the fitted concentration of half-maximal effect.
(1) Cc1[nH]c(C)c(S(=O)(=O)N2c3ccccc3CC2C)c1C(=O)N1CCCCC1 (stereo not drawn)
(2) C=CCOC(=O)C1=C(C)OC(N)=C(C#N)C12C(=O)N(CN1CCOCC1)c1ccccc12 (stereo not drawn)
(3) CC(=O)c1ccc(S(=O)(=O)NCc2ccc(C(=O)N(C)CC(=O)Nc3cccc(F)c3)cc2)cc1
(4) CC(=O)NC1C(=O)N=C(SCC(=O)Nc2c(C)cccc2C)NC1=O (stereo not drawn)
(5) COc1cc(C(=O)NCCc2cn3ccccc3n2)cc(OC)c1OC

Compound	1	2	3	4	5
Cruzain noTriton	nt	-4.0%	nt	nt	-8.1%
MARV entry inh	nt	16.5%[46.1 µM]	-25.2%	-1.8%[46.1 µM]	nt
Cruzain Triton	nt	2.5%	nt	nt	-5.9%
StopGo reporter	13.9%	1.9%	-19.3%	-2.1%	-12.3%
NS1 inh	-7.0%	5.0%	5.3%	nt	1.5%
SARS PLP yeast	0.9%	4.3%	-0.4%	-0.7%	-0.6%
RE007 growth inh	-1.7%	21.2%	-9.1%	22.2%	-0.5%
LASV entry inh	nt	?	?	-6.3%	nt

(6) CCn1c(=O)c(=O)[nH]c2cc(C(=O)NC3CC3)ccc21
(7) CCCCNC(=O)NCC(=O)Nc1ccc(F)c(F)c1
(8) Cc1cc(C)c2c(=O)[nH]c(SCC(=O)N(C)C)nc2n1
(9) Oc1cc2c(cc1C(c1ccc(Cl)c(Cl)c1)N1CCCC1)OCO2 (stereo not drawn)
(10) CC(/C=C/c1ccccc1)=N\Nc1nc2c(c(=O)[nH]c(=O)n2C)n1CCO

Compound	6	7	8	9	10
Cruzain noTriton	-15.1%	-9.3%	-1.5%	nt	nt
MARV entry inh	1.0%	2.7%	7.2%	?	nt
Cruzain Triton	-3.7%	-6.2%	-2.8%	nt	nt
StopGo reporter	-16.5%	38.4%[activator]	nt	?	-15.4%
NS1 inh	21.3%	-8.2%	8.3%	24.3%	7.4%
SARS PLP yeast	-0.3%	-2.0%	3.2%	-2.6%	0.7%
RE007 growth inh	-14.9%	7.1%	7.2%	?	7.3%
LASV entry inh	11.1%	30.1%	7.9%	4.0%[46.1 µM]	nt

(11) Cc1ccc2c(c1)N(CC(=O)O)C(=O)CO2
(12) O=c1c2ccccc2n2c(-c3cccc(Cl)c3)nnc2n1Cc1ccccc1
(13) CCOc1ccc(S(=O)(=O)c2cn(Cc3ccccc3)c3ccc(OCC)cc3c2=O)cc1
(14) COc1cc(NC(=O)CSc2nnnn2-c2ccccc2)cc(OC)c1OC
(15) COc1cc(/C(C)=N/NC(=O)c2ccc(CSc3nncn3C)cc2)cc(OC)c1OC

Compound	11	12	13	14	15
Cruzain noTriton	-2.3%	?	-17.9%	10.6%	nt
MARV entry inh	-0.8%	?	0.2%[46.1 µM]	-13.9%	4.2%
Cruzain Triton	-0.1%	-4.8%	-3.5%	-1.9%	nt
StopGo reporter	-19.6%	-15.5%	4.0%	?	-2.6%
NS1 inh	-15.9%	1.5%	nt	11.9%	nt
SARS PLP yeast	1.5%	-2.0%	nt	nt	-0.1%
RE007 growth inh	14.8%	-2.5%	nt	-6.9%	1.4%
LASV entry inh	12.4%	1.3%	-2.9%[46.1 µM]	-2.6%	-1.9%

# Whole records from above:
# CCOc1ccc(S(=O)(=O)c2cn(Cc3ccccc3)c3ccc(OCC)cc3c2=O)cc1 across the screens: Cruzain noTriton: -17.9%; MARV entry inh: 0.2%[46.1 µM]; Cruzain Triton: -3.5%; StopGo reporter: 4.0%; NS1 inh: nt; SARS PLP yeast: nt; RE007 growth inh: nt; LASV entry inh: -2.9%[46.1 µM]
# O=c1c2ccccc2n2c(-c3cccc(Cl)c3)nnc2n1Cc1ccccc1 across the screens: Cruzain noTriton: ?; MARV entry inh: ?; Cruzain Triton: -4.8%; StopGo reporter: -15.5%; NS1 inh: 1.5%; SARS PLP yeast: -2.0%; RE007 growth inh: -2.5%; LASV entry inh: 1.3%
# COc1cc(NC(=O)CSc2nnnn2-c2ccccc2)cc(OC)c1OC across the screens: Cruzain noTriton: 10.6%; MARV entry inh: -13.9%; Cruzain Triton: -1.9%; StopGo reporter: ?; NS1 inh: 11.9%; SARS PLP yeast: nt; RE007 growth inh: -6.9%; LASV entry inh: -2.6%

# Carrying on:
(16) O=C(O)c1ccc(OC2CSC2)cc1
(17) O=C(NCC1CCCO1)c1cc2ccccc2cc1O (stereo not drawn)
(18) COc1c(S(=O)(=O)N2CCN(C(=O)c3ccco3)CC2)ccc(Cl)c1Cl
(19) CCN(CC(=O)NCC1CCCO1)S(=O)(=O)c1ccc2ccccc2c1 (stereo not drawn)
(20) Oc1cccc(C2c3[nH]c4ccccc4c3CCN2Cc2ccc3c(c2)CCO3)c1 (stereo not drawn)

Compound	16	17	18	19	20
Cruzain noTriton	-2.8%	nt	nt	nt	nt
MARV entry inh	9.8%	-7.0%	nt	1.4%	3.16µM*
Cruzain Triton	2.5%	nt	nt	nt	nt
StopGo reporter	-25.9%	66.7%[activator]	-25.7%	-14.7%	-26.1%
NS1 inh	-81.0%	nt	-26.0%	-16.0%	-3.9%
SARS PLP yeast	-0.3%	-5.3%	12.2%	-6.7%	-1.4%
RE007 growth inh	-18.0%	-18.7%	24.5%	0.0%	-18.4%
LASV entry inh	1.4%	?	nt	-26.0%	?

(21) Cc1ccc(/C(O)=C2\C(=O)C(=O)N(c3cc(C)on3)C2c2cccc(Cl)c2)cc1 (stereo not drawn)
(22) COc1ccc(CNc2cc(-c3ccc(OC)cc3)nc3nncn23)cc1
(23) O=C(CSc1ncc2c(n1)-c1ccccc1N(Cc1ccc(F)cc1)S2(=O)=O)NCc1ccccc1
(24) COc1ccc(Cl)cc1NC(=S)NCCc1ccc(S(N)(=O)=O)cc1
(25) N#CC1=C2SCN(Cc3ccco3)CN2C(=O)CC1c1cccc2ccccc12 (stereo not drawn)

Compound	21	22	23	24	25
Cruzain noTriton	?	-9.8%	-9.4%	nt	-25.5%
MARV entry inh	-10.5%	6.5%[46.1 µM]	nt	?	-17.2%
Cruzain Triton	-8.5%	-6.8%	1.8%	nt	-6.0%
StopGo reporter	-21.4%	?	-11.9%	-27.6%	-24.3%
NS1 inh	0.7%	nt	nt	-2.4%	-47.7%
SARS PLP yeast	-3.2%	nt	nt	1.0%	9.3%
RE007 growth inh	-9.3%	nt	nt	11.1%	-2.9%
LASV entry inh	8.7%	-25.6%[46.1 µM]	1.7%[46.1 µM]	?	1.6%

(26) CCOC(=O)COc1c(Br)cc(/C=C2\SC(=O)N(CC(=O)N3CCCC3)C2=O)cc1OC
(27) COc1ccc(CCNC(=O)C2CCN(Cc3nc(-c4ccc(Cl)cc4)oc3C)CC2)cc1OC
(28) Cc1ccccc1-n1c(SCc2c(C)noc2C)nnc1-c1cccnc1
(29) Cc1c(C(=O)OCC(=O)NCC2CCCO2)cccc1[N+](=O)[O-] (stereo not drawn)
(30) Cc1nn(C(=O)CCC(=O)NCCc2ccccc2)c2ccccc12

Compound	26	27	28	29	30
Cruzain noTriton	?	nt	3.0%	nt	nt
MARV entry inh	-13.9%	10.1%[46.1 µM]	-3.2%	19.9%[46.1 µM]	nt
Cruzain Triton	4.1%	nt	0.6%	nt	nt
StopGo reporter	?	-16.4%	-22.2%	-8.9%	-1.5%
NS1 inh	-0.7%	nt	6.2%	3.6%	-4.2%
SARS PLP yeast	3.5%	nt	-1.5%	-0.8%	1.5%
RE007 growth inh	-13.5%	1.2%	-19.4%	-8.6%	-0.8%
LASV entry inh	-25.4%	-1.0%	4.1%	3.5%	nt

# 3 entries picked at random from those above, as already listed:
(30) Cc1nn(C(=O)CCC(=O)NCCc2ccccc2)c2ccccc12
(28) Cc1ccccc1-n1c(SCc2c(C)noc2C)nnc1-c1cccnc1
(29) Cc1c(C(=O)OCC(=O)NCC2CCCO2)cccc1[N+](=O)[O-] (stereo not drawn)

Compound	30	28	29
Cruzain noTriton	nt	3.0%	nt
MARV entry inh	nt	-3.2%	19.9%[46.1 µM]
Cruzain Triton	nt	0.6%	nt
StopGo reporter	-1.5%	-22.2%	-8.9%
NS1 inh	-4.2%	6.2%	3.6%
SARS PLP yeast	1.5%	-1.5%	-0.8%
RE007 growth inh	-0.8%	-19.4%	-8.6%
LASV entry inh	nt	4.1%	3.5%

# Later entries
(31) CC(Nc1cc(C)cc(C)c1)=[N+](C)CCNS(=O)(=O)c1ccc(Cl)cc1
(32) CCCN1C(=O)C(O)(CC(=O)c2ccc(OC)c(OC)c2)c2ccccc21 (stereo not drawn)
(33) O=C(Nc1nc(-c2ccccc2)cs1)C1CCCCN1S(=O)(=O)c1ccccc1 (stereo not drawn)
(34) O=C(CCCC(=O)NC1CCCCC1)Nc1ccc([N+](=O)[O-])cc1

Compound	31	32	33	34
Cruzain noTriton	nt	?	?	nt
MARV entry inh	10µM*	-7.4%[46.1 µM]	?	nt
Cruzain Triton	nt	3.4%	-11.0%	nt
StopGo reporter	-22.7%	-22.5%	nt	-11.0%
NS1 inh	1.4%	nt	-16.3%	3.4%
SARS PLP yeast	4.4%	nt	-3.4%	-7.2%
RE007 growth inh	-6.2%	nt	-3.4%	7.5%
LASV entry inh	-11.7%[46.1 µM]	4.3%[46.1 µM]	?	nt

# Compound activity: PubChem, National Center for Advancing Translational Sciences (NCATS)
